Screening data from PubChem.
BasE inh = inhibitors of Acinetobacter baumannii siderophore enzyme BasE. purified BasE, fluorescence polarization binding displacement. inhibition, % (test concentration not listed). 0.1% of 84,000 active. AID 485350;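 active = both replicates above 25% with normal brightness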;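 note: 0% = negative plate control signal and 100% = positive plate control signal; stock transfer was 100 nL into about 30 µL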
LANA-nucl inh = LANA-nucleosome interaction inhibition | 0.3% of 51,000 active | AID 720717 | z-score (no concentration beside the values) | FITC-LANA1-23 / chicken nucleosome fluorescence polarization; stronger effect = lower value;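 active = both repeat wells score below -2 in polarization z-score versus plate sample wells, excluding overly bright wells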;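 note: 100 nL library stock added to about 30 µL; numbers are from one replicate; some results filed as inactive read as strong as hits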
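Material: Purified chicken nucleosomes with FITC-labelled LANA N-terminal peptide (1-23) | Reagent: 50 nM FITC-LANA1-23 probe | Medium: TEN-BT buffer, pH 7.5 | Times: 10–45 min incubation at room temperature | Detection: Fluorescence polarization | Replication: Duplicates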
* hit, by the source's call; . = not tested or not shown; & = joins results of further samples. A portion of the library (hit frequency here may not be typical).

Start of the listing, in advance:
nr	SMILES	BasE inh	LANA-nucl inh
1	C/C(=N\OCC(=O)NC1CCCc2ccccc21)c1cc2ccccc2o1 (configuration not stated)	2.2	.
2	CC(=O)O[C@@H]1[C@H]2OC(C)(C)O[C@H]2O[C@@H]1C(O)CO (some centres not stated)	2.2	.
3	S=c1ccc2nnc(-c3ccccc3)n2[nH]1	0.9	-1.29
4	Cc1ccc(-c2cnnc(-c3ccc(Cl)cc3)n2)cc1	1.4	-1.3

The list itself (from the top)
nr	SMILES	BasE inh	LANA-nucl inh
1	C/C(=N\OCC(=O)NC1CCCc2ccccc21)c1cc2ccccc2o1 (configuration not stated)	2.2	.
2	CC(=O)O[C@@H]1[C@H]2OC(C)(C)O[C@H]2O[C@@H]1C(O)CO (some centres not stated)	2.2	.
3	S=c1ccc2nnc(-c3ccccc3)n2[nH]1	0.9	-1.29
4	Cc1ccc(-c2cnnc(-c3ccc(Cl)cc3)n2)cc1	1.4	-1.3
5	Cc1nn(Cc2ccccc2Cl)c(C)c1NC(=O)COCc1cc(-c2ccc3c(c2)OCO3)on1	0.0	2.53
6	CCn1c(SCC(=O)OCC(=O)Nc2ccc(C)c(F)c2)nnc1-c1cccs1	-0.7	.
7	O=C(COC(=O)C1CCN(C(=O)Nc2ccccc2)CC1)c1c[nH]c2ccccc12	-1.5	.
8	O=C(CN1CCN(Cc2ccc(Cl)cc2)CC1)N1CCc2ccccc21	-2.0	.
9	CC1(C)CC(=O)C(C=NC2CC(C)(C)NC(C)(C)C2)=C(O)C1	0.1	-0.524
10	COc1ccc(N2CCN(c3c(C(=O)c4ccc(C)cc4)cnc4cc(OC)c(OC)cc34)CC2)cc1	0.2	-0.553
11	CC(C)c1cc(=O)[nH]c(SCCOc2ccccc2Cl)n1	0.8	-0.506
12	CCC(C)c1ccc(NC(=O)CC(C)C)cc1 (configuration not stated)	2.4	-0.127
13	Cn1c(Cc2nc(-c3cnccn3)no2)nnc1SCc1ccc(Cl)cc1	1.1	.
14	COc1ccc(C(=O)Nc2cccc(-c3nc4ccccc4o3)c2)cc1	-9.1	.
15	O=C1CC(c2ccccc2)NC(c2ccccc2)C1 (configuration not stated)	-1.3	0.12
16	O=C(COc1cccc(C(F)(F)F)c1)NCCc1ccccn1	4.1	.
17	Cc1cc2nc(N3CCOCC3)c3ccccc3n2n1	0.3	.
18	CC(=O)OC[C@H]1O[C@@H](N2CCCCC2)[C@H](OC(C)=O)[C@@H](OC(C)=O)[C@@H]1OC(C)=O	1.8	-0.525
19	Cc1ccc(CSc2nnc(-c3ccc4c(c3)OCO4)o2)cc1	0.7	.
20	C=CCn1cc(/C=C(/C#N)c2ccc(F)cc2)c2ccccc21	1.2	-0.739
21	Cc1cc(/C(O)=C2\C(=O)C(=O)N(CCN(C)C)C2c2ccncc2)ccc1OCC(C)C (configuration not stated)	0.5	-0.116
22	O=S(=O)(Cc1cccc(C(F)(F)F)c1)N1CCCCC1	.	-0.337
23	CC1(C)Nc2ccccc2-c2nc3ccccc3n21	5.3	0.235
24	COc1cccc(CSc2nc3ccncc3n2CC(=O)NCC2CCCO2)c1 (configuration not stated)	-2.5	-1.21
25	CCOc1ccc(C(=O)N2CCC(C(=O)OC)CC2)cc1	0.7	0.53
26	COC(=O)C1=[N+]([O-])OC(C(=O)OC)C1c1c[nH]c2ccccc12 (configuration not stated)	3.5	.
27	CN1C(=O)S/C(=C\c2ccc(N(C)C)cc2)C1=O	5.5	-0.491
28	Cn1nnnc1SCc1ccccc1	1.5	-0.469
29	COc1cccc(C2C(C#N)=C(N)Oc3c2c(=O)n(C)c(=O)n3C)c1 (configuration not stated)	-1.4	0.0765
30	Cc1cccc(CCN2CCC(C(=O)c3ccc(NS(C)(=O)=O)cc3)CC2)n1	1.2	1.29&1.92

Next section
nr	SMILES	BasE inh	LANA-nucl inh
31	COc1ccc(-c2ccc(C#N)c(SCC#N)n2)cc1OC	-3.4	0.928
32	C1=CCC(CNCCN2CCOCC2)CC1 (configuration not stated)	-1.6	0.347
33	CC(C)N(Cc1ccccc1)C(=O)c1cc(-c2ccccc2)n[nH]1	-1.4	.
34	O=C(/C=C/c1ccco1)OCc1cccc(C(F)(F)F)c1	1.1	.
35	S=C1NC2=C(CCc3ccccc32)C(c2ccccc2)N1 (configuration not stated)	-2.1	.
36	Cc1ccc(NC(=O)Cn2cc3c(n2)CCC(C)C3)c(Cl)c1 (configuration not stated)	0.4	0.768
37	CC(C)NC(=O)c1cccc(N2CCCS2(=O)=O)c1	1.1	.
38	O=S1(=O)CCN(OCc2ccc(C(F)(F)F)cc2)CC1	.	0.0295
39	O=C(C1CCCO1)N1CCN(c2ccccn2)CC1 (configuration not stated)	-1.7	0.434
40	COc1ccc2c(C)cc(Sc3nnnn3-c3ccccc3)nc2c1	-0.7	.
41	Cc1scc(CN2CCN(C(=O)c3ccco3)CC2)c1C	-1.4	0.751
42	CCSC1=N/C(=C\c2ccc(Br)s2)C(=O)S1	0.3	.
43	CCc1ccc(C(=O)NC(=S)Nc2ccc3[nH]c(=O)[nH]c3c2)cc1	1.5	-1.32
44	CCn1c(=O)/c(=C2/Sc3ccc(Cl)cc3N2C)s/c1=C1/C(=O)N(C)N=C1C	-0.3	-0.631
45	N=C1N(c2ccc(Cl)c(Cl)c2)C(=O)NC12CCCC2	0.1	.
46	COc1ccc(/C=C2\N=C(SCC(=O)N3CCN(C(=O)c4ccco4)CC3)N(c3cc(C)cc(C)c3)C2=O)cc1	1.7	.
47	O=c1[nH]c(-c2ccc(S(=O)(=O)N3CCCC3)cc2)nc2sc3c(c12)CCCC3	2.1	-0.591
48	O=C1CN(C(=O)c2ccc3c4c(cccc24)CC3)c2ccccc2N1	0.1	-0.457
49	N/C(=N\N=C\c1ccccc1)SC1CC(=O)N(c2ccccc2)C1=O (configuration not stated)	0.7	-0.683
50	CSc1ccccc1NC(=O)CSC1=NCCN1	-29.2	.
51	O=C(Cn1ncc(Cl)c(Cl)c1=O)N1CCCc2ccccc21	0.7	.
52	Cc1cc(C)c(C2=CSC3=NS(=O)(=O)CCN23)c(C)c1	0.9	.
53	CNC(=S)NCc1ccc(-c2csnn2)cc1	-0.8	.
54	Cc1onc(-c2ccccc2)c1C(=O)Nc1ccc2c(C)cc(=O)oc2c1	6.6	.
55	Cc1nc(S(=O)(=O)NCCNc2ccc(-c3ccc(F)cc3)nn2)cn1C	0.1	.
56	OCCn1c(SC2CCCCC2)nc2ccccc21	0.5	.
57	CN(C(=S)NCc1ccco1)C(c1ccccc1)c1ccccc1	0.6	.
58	Cn1c2c(c(=O)n(C)c1=O)C(c1cccc(Cl)c1)C1C(=O)c3ccccc3C1=N2 (configuration not stated)	2.6	.
59	O=C(NCc1cccnc1)c1cnn2c1NC(c1ccccc1)CC2C(F)(F)F (configuration not stated)	-1.1	0.462
60	CCCn1c(SCC(O)c2ccc(OC)cc2)nc2ccccc21 (configuration not stated)	-0.9	0.121

The list goes on.
nr	SMILES	BasE inh	LANA-nucl inh
61	CC(C)(C)C(=O)CNS(=O)(=O)c1ccc(S(=O)(=O)N2CCCC2)cc1	1.5	0.0405
62	O=C(Oc1ccc2c(c1)OCO2)c1ccncc1	7.6	.
63	O=S(=O)(Cc1ccccc1)N1CCN(Cn2c(SC(F)F)nc3ccccc32)CC1	0.5	.
64	Cc1csc2ncnc(N3CCN(S(=O)(=O)c4cccc(C(F)(F)F)c4)CC3)c12	2.6	-0.766
65	CC1CC(c2ccccc2)n2nc(N)nc2N1 (configuration not stated)	-1.1	2.83
66	COc1ccc(CSc2nncn2N)cc1	-2.7	2.48
67	O=C(Nc1ccc2oc(=O)ccc2c1)c1cccs1	-0.9	-0.623
68	CCc1nc(SC)ncc1C(=O)NCCN1CCN(c2cccc(Cl)c2)CC1	-1.3	0.325
69	CC1(C)Cc2ccccc2-c2cc3nc4ccccc4nc3n21	-2.0	-0.085
70	O=C(CSc1nc(SCC(=O)c2ccccc2)c2ccccc2n1)c1ccccc1	1.5	.
71	Cn1nc(NCc2ccc(Cl)cc2)c(=O)n(C)c1=O	-3.0	.
72	CN=C1SC(CC(=O)NC(N)=O)C(=O)N1C (configuration not stated)	-0.7	0.933
73	CN(C(=S)S)C1CCS(=O)(=O)C1 (configuration not stated)	1.1	-0.138
74	Brc1cccc(OCCSc2ncccn2)c1	3.2	-0.529
75	O=C1N(CN2CCCCC2)c2ccccc2C12OCCCCO2	0.7	-0.627
76	Fc1cc(Br)ccc1N=Cc1ccco1	-0.6	.
77	CN(C(=O)c1ccco1)c1ccccc1C(=O)NCCc1ccccc1	0.0	0.224
78	S=C(c1nc2ccccc2[nH]1)N1CCOCC1	2.5	.
79	Cc1cc(C(=O)Oc2cccc(Cl)c2)n(C(C)(C)C)n1	-0.2	-0.817
80	C=CCN1CCN(C(=O)c2csc(CCC)c2)CC1	0.5	-2.07
81	O=C(O)c1ccccc1S(=O)(=O)c1ccccc1C(=O)O	-1.1	0.369
82	O=C(c1cccc(F)c1)N1CCOCC1	0.4	-0.008
83	Cc1csc(-c2cc3ccccc3oc2=O)n1	0.2	-0.712
84	COc1ccc(-c2nn(-c3ccccc3)cc2C=C2C(=O)CC(C)(C)CC2=O)cc1	-0.8	.
85	O=C(O)CC(CC(=O)Nc1ccccn1)c1ccccc1 (configuration not stated)	1.0	-0.408
86	CCC1CCCCN1C(=O)CSc1cnc2ccccc2n1 (configuration not stated)	2.2	.
87	O=C(OCc1ccc(-c2cc(C(F)(F)F)cc(C(F)(F)F)c2)o1)c1ccc2c(c1)CCO2	1.2	.
88	CCn1c(CN(C)CCOc2ccc(OC)cc2)nc2cc(S(=O)(=O)N(C)C)ccc21	-0.2	.
89	CC(C)CN(CC(C)C)CC(O)Cn1cnc2c1c(=O)n(C)c(=O)n2C (configuration not stated)	0.2	1.59
90	CCOC(=O)/C=C1\SCC(=O)N1CCSc1nc(C)cs1	-1.9	.

Quoted at random: six compounds from above.
nr	SMILES	BasE inh	LANA-nucl inh
73	CN(C(=S)S)C1CCS(=O)(=O)C1 (configuration not stated)	1.1	-0.138
77	CN(C(=O)c1ccco1)c1ccccc1C(=O)NCCc1ccccc1	0.0	0.224
62	O=C(Oc1ccc2c(c1)OCO2)c1ccncc1	7.6	.
83	Cc1csc(-c2cc3ccccc3oc2=O)n1	0.2	-0.712
85	O=C(O)CC(CC(=O)Nc1ccccn1)c1ccccc1 (configuration not stated)	1.0	-0.408
76	Fc1cc(Br)ccc1N=Cc1ccco1	-0.6	.

(more compounds)
Values run as follows: BasE inh, LANA-nucl inh
91	CC1=CCC2C(=O)N(CCc3c[nH]c4ccccc34)C(=O)C2C1 (configuration not stated)
    0.0, 0.8
92	CC1(C)C(=O)Nc2ccccc2N1C(=O)COC(=O)c1cc(S(=O)(=O)N2CCOCC2)ccc1F
    -1.6, .
93	O=S(=O)(NN1CCOCC1)c1ccc(Br)cc1
    -0.7, -0.262
94	Cc1nc(-c2ccc(Cl)cc2)sc1C(=O)/C=C/N(C)C
    ., 0.415
95	Cc1ccc(S(=O)(=O)NN2C(=O)c3ccccc3NC23CCCC3)cc1
    1.1, -0.851
96	COc1cc2c(cc1OC)-c1cc(=Nc3c(C)cc(C)cc3C)n(C)c(=O)n1CC2
    1.7, 0.294&-0.934
97	CC(C#N)Sc1nn(-c2ccc(Cl)c(Cl)c2)c(=S)s1 (configuration not stated)
    -0.5, .
98	CN(C)C(=O)CSc1nc2ccc(Cl)cc2[nH]1
    -2.6, .
99	Cc1cc(Cl)c(Cl)cc1S(=O)(=O)n1cccn1
    2.0, -0.474
100	NC(=O)c1cc[n+](CC2=C(C(=O)[O-])N3C(=O)[C@@H](NC(=O)Cc4cccs4)[C@H]3SC2)cc1
    15.4, 0.496
101	Cn1c(=O)c2ccccc2n(CC(N)=O)c1=O
    -1.4, -0.54
102	CC(C)CC(=O)N1CCN(C(=O)C2CC2)CC1
    0.3, -0.179
103	Cc1nc(SCCOc2ccccc2)sc1C(=O)Nc1ccccc1
    0.4, .
104	O=C(Cc1csc(-c2ccccc2)n1)Nc1cccnc1
    3.2, .
105	O=c1[nH]c(=O)n([C@H]2C[C@H](O)[C@@H](CO)O2)cc1Br
    2.9, 0.657
106	CC(OC(=O)c1ccccc1NS(C)(=O)=O)C(=O)Nc1ncc(Cl)cc1Cl (configuration not stated)
    1.3, .
107	CCOC(=O)c1c(NC(=S)Nc2cc(C)nn2-c2ccccc2)sc(C)c1C
    -3.5, .
108	COc1ccc2ccc(Oc3ncccn3)cc2c1
    0.8, .
109	NC(N)=N/N=C/c1ccccc1C(F)(F)F
    -1.6, .
110	N#Cc1ccccc1NC(=O)Nc1ccc(CN2CCOCC2)cc1
    1.0, 0.03

Continuation.
Values run as follows: BasE inh, LANA-nucl inh
111	CSc1nsc(SCC(=O)N2CCCC2)n1
    0.2, 0.68
112	CNC(=O)CCCn1nc(C)c2c(C)n(-c3ccc(C)cc3)nc2c1=O
    -4.4, .
113	O=C(/C=C/c1ccccc1)NC1CCSC1=O (configuration not stated)
    -3.8, 1.75
114	CS(=O)(=O)Nn1cnc2ccccc2c1=O
    4.8, 0.0885
115	O=C1c2ccc(-c3nc4ccccc4c(=O)o3)cc2C(=O)N1c1cccnc1
    1.9, -0.601
116	CC(=O)Nc1ccc(S(=O)(=O)NCC(=O)OCc2cc(=O)n3cc(Br)ccc3n2)cc1
    -2.8, .
117	COC(=O)Nc1ccccc1NC(=O)OC
    3.7, -0.323
118	CNC(=O)COC(=O)c1nc(Cl)c(Cl)c(Cl)c1Cl
    1.3, .
119	O=C(CN1CCC(NC(=O)NC2CCCCC2)CC1)NCc1ccccc1
    -0.9, 0.472
120	Cc1nc(N2CCSCC2)ncc1S(=O)(=O)c1ccc(Cl)cc1
    ., 0.342
121	Clc1nc(NCCN2CCOCC2)nc(Nc2ccc3c(c2)OCO3)n1
    0.2, 0.367
122	O=C(O)c1nccnc1-c1nc2ccccc2c(=O)[nH]1
    0.5, -0.499
123	CCOC(=O)c1cc(-c2ccc(F)cc2)n(CC(=O)Nc2nnc(SCC)s2)c1C
    0.7, -0.799
